NOMO-1 viab = STK33 inhibitor candidate reducing NOMO-1 cell viability | inhibition, % (no concentration beside the values) | NOMO-1 AML viability, CellTiter-Glo luminescence, 72 h | actives 7.5% (n = 37,000);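 active = most replicates above 80%; inconclusive = exactly half above 80%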;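 note: wells of about 30 µL received 25 nL stock; 0% = median of vehicle wells and 100% = reference inhibitor level; the first replicate is given; inactives centre near 10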
* = called active by the depositor; ? = inconclusive. An excerpt. The share of hits here may be higher or lower than overall.

SMILES	NOMO-1 viab
C[C@H]1CN([C@@H](C)CO)C(=O)c2cc(NC(=O)Nc3ccc(F)cc3)ccc2O[C@@H]1CN(C)Cc1ccc2c(c1)OCO2	22.8
COc1ccc(C(C)C)cc1S(=O)(=O)Nc1cccc(C(=O)O)c1	-5.7
C[C@H]1CN([C@@H](C)CO)C(=O)c2cc(NS(C)(=O)=O)ccc2O[C@@H]1CN(C)Cc1ccccc1	-13.1
O=C(CSc1nnc(-c2cnccn2)n1-c1ccccc1)Nc1ccc2c(c1)OCCO2	-10.7
CCCN1C(=O)C(NS(=O)(=O)c2ccc(NC(C)=O)cc2)(C(F)(F)F)C2=C1CC(C)(C)CC2=O (configuration not stated)	28.0
COc1cc(-c2oc3cc(O)cc(O)c3c(=O)c2OC2OC(CO)C(O)C(O)C2O)ccc1O (configuration not stated)	0.1
O=C(O)c1ccc(CNC(=O)c2ccc(NC(=O)c3ccco3)cc2)cc1	-11.1
C[C@H](CO)N1C[C@H](C)[C@H](CN(C)S(=O)(=O)c2ccc(F)cc2)Oc2ccc(NC(=O)CCCN(C)C)cc2C1=O	-14.1
CCOc1ccc(C)cc1S(=O)(=O)Nc1cccnc1	44.5
C[C@@H]1CN([C@@H](C)CO)C(=O)c2cc(NS(C)(=O)=O)ccc2O[C@@H]1CN(C)CC1CC1	-21.7
COc1ccc(NC(=O)N(C)C[C@H]2Oc3ccc(NS(=O)(=O)c4cccs4)cc3C(=O)N([C@H](C)CO)C[C@H]2C)cc1	40.2
Nc1ccc(-c2cc(=O)c3cc(O)ccc3o2)cc1	-11.3
OC(COc1ccccc1Cl)Cn1cnc2ccccc21 (configuration not stated)	17.9
Cc1ccc(S(=O)(=O)Nc2ccc3c(c2)C(=O)N([C@@H](C)CO)C[C@@H](C)[C@H](CN(C)S(=O)(=O)c2cn(C)cn2)O3)cc1	-8.3
Cc1ccc(S(=O)(=O)Nc2ccc3c(c2)C(=O)N([C@@H](C)CO)C[C@@H](C)[C@@H](CN(C)C(=O)Nc2ccc4c(c2)OCO4)O3)cc1	3.9
CN(c1ccc(C(=O)NCc2ccco2)cc1)S(C)(=O)=O	-17.3
C[C@@H]1CN([C@@H](C)CO)C(=O)c2cc(NC(=O)Cc3cn(C)c4ccccc34)ccc2O[C@H]1CN(C)C(=O)Nc1ccc2c(c1)OCO2	12.0
Cc1ccc(S(=O)(=O)N(C)C[C@H]2Oc3ccc(NS(C)(=O)=O)cc3C(=O)N([C@H](C)CO)C[C@@H]2C)cc1	21.1
C[C@@H]1CN([C@H](C)CO)C(=O)c2cc(NS(=O)(=O)c3ccc(Cl)cc3)ccc2O[C@@H]1CN(C)CC1CCCCC1	23.3
C[C@@H]1CN([C@@H](C)CO)C(=O)c2cccc(NC(=O)Nc3ccc(C(F)(F)F)cc3)c2O[C@H]1CN(C)Cc1ccc(Cl)c(Cl)c1	107.1*
C[C@@H]1CN([C@@H](C)CO)C(=O)Cc2cc(NS(=O)(=O)c3ccc(F)cc3)ccc2O[C@@H]1CN(C)Cc1ccc(C(F)(F)F)cc1	102.6*
COc1ccc(NC(=O)Nc2ccc3c(c2)CC(=O)N([C@H](C)CO)C[C@H](C)[C@H](CN(C)Cc2ccc(Cl)c(Cl)c2)O3)cc1	68.8
C[C@@H]1CN([C@H](C)CO)C(=O)c2cccc(NC(=O)Nc3ccc(C(F)(F)F)cc3)c2O[C@@H]1CN(C)Cc1ccc(C(=O)O)cc1	0.6
COc1ccc(/C=N/n2c(=O)c3c(ncn3/N=C/c3ccc(OC)cc3)n(C)c2=O)cc1	10.9
C[C@H](CO)N1C[C@H](C)[C@H](CN(C)CC2CC2)Oc2ccc(NC(=O)CCCCCC(=O)Nc3ccccc3N)cc2C1=O	50.5
C[C@@H]1CN([C@H](C)CO)C(=O)c2cccc(NC(=O)CCCCCC(=O)Nc3ccccc3N)c2O[C@@H]1CN(C)S(C)(=O)=O	-3.5
C[C@H](CO)N1C[C@H](C)[C@H](CN(C)S(=O)(=O)c2ccc(F)cc2)Oc2ccc(NC(=O)CCN3CCOCC3)cc2C1=O	-0.7
C[C@H]1CN([C@@H](C)CO)C(=O)Cc2cc(NC(=O)Cn3cnnn3)ccc2O[C@H]1CN(C)S(=O)(=O)c1cn(C)cn1	4.4
Cc1ccc(S(=O)(=O)Nc2cccc3c2O[C@@H](CN(C)S(=O)(=O)c2ccc(Cl)cc2)[C@H](C)CN([C@@H](C)CO)C3=O)cc1	4.2
C[C@H]1CN([C@@H](C)CO)C(=O)Cc2cc(NS(C)(=O)=O)ccc2O[C@H]1CN(C)C(=O)Nc1ccc(F)cc1	-6.1

An excerpt of these results, as labelled records:
molecule: C[C@H](CO)N1C[C@H](C)[C@H](CN(C)CC2CC2)Oc2ccc(NC(=O)CCCCCC(=O)Nc3ccccc3N)cc2C1=O
  NOMO-1 viab: 50.5

molecule: C[C@@H]1CN([C@H](C)CO)C(=O)c2cccc(NC(=O)CCCCCC(=O)Nc3ccccc3N)c2O[C@@H]1CN(C)S(C)(=O)=O
  NOMO-1 viab: -3.5

molecule: C[C@@H]1CN([C@@H](C)CO)C(=O)Cc2cc(NS(=O)(=O)c3ccc(F)cc3)ccc2O[C@@H]1CN(C)Cc1ccc(C(F)(F)F)cc1
  NOMO-1 viab: 102.6*

Later entries:
SMILES	NOMO-1 viab
COc1ccc(S(=O)(=O)Nc2ccc3c(c2)C(=O)N([C@H](C)CO)C[C@H](C)[C@H](CN(C)C(=O)Cc2ccccc2)OCCCC[C@@H](C)O3)cc1	12.8
C[C@@H]1CN([C@@H](C)CO)C(=O)c2cccc(N(C)C)c2O[C@H]1CN(C)S(=O)(=O)c1ccc(F)cc1	4.1
Cc1ccc(OCC(=O)Nc2ccc3oc(-c4c(F)c(F)c(F)c(F)c4F)nc3c2)cc1	-12.0
COc1ccc(NC(=O)Nc2ccc3c(c2)C(=O)N([C@H](C)CO)C[C@H](C)[C@H](CN(C)Cc2ccc4c(c2)OCO4)OCCCC[C@@H](C)O3)cc1	57.3
CCN1CCN(Cc2c(C)[nH]c3ccc(Cl)cc3c2=O)CC1	10.8
CC(C)(C)c1ccc(SC(=O)c2ccc(OCC(F)(F)F)nc2)cc1	-2.8
Cc1ccccc1-c1nc(S(=O)(=O)c2ccc(Cl)cc2)c(NCCN2CCOCC2)o1	35.5
Cc1ccccc1-c1nnc(SCC(=O)Nc2ccc(F)c(Cl)c2)n1C	19.2
C[C@@H]1CN([C@@H](C)CO)C(=O)c2cc(NS(C)(=O)=O)ccc2O[C@@H]1CN(C)S(=O)(=O)c1cccs1	-3.7
COc1ccc(S(=O)(=O)N(C)C[C@@H]2Oc3c(NC(=O)CCCCCC(=O)Nc4ccccc4N)cccc3C(=O)N([C@@H](C)CO)C[C@H]2C)cc1	?

Reformatted field by field: part of the list above.
> Cc1ccc(OCC(=O)Nc2ccc3oc(-c4c(F)c(F)c(F)c(F)c4F)nc3c2)cc1
  NOMO-1 viab: -12.0

> COc1ccc(NC(=O)Nc2ccc3c(c2)C(=O)N([C@H](C)CO)C[C@H](C)[C@H](CN(C)Cc2ccc4c(c2)OCO4)OCCCC[C@@H](C)O3)cc1
  NOMO-1 viab: 57.3

> CCN1CCN(Cc2c(C)[nH]c3ccc(Cl)cc3c2=O)CC1
  NOMO-1 viab: 10.8

> CC(C)(C)c1ccc(SC(=O)c2ccc(OCC(F)(F)F)nc2)cc1
  NOMO-1 viab: -2.8

Next part.
SMILES	NOMO-1 viab
C[C@H](CO)N1C[C@H](C)[C@H](CN(C)Cc2ccc(C(F)(F)F)cc2)Oc2ccc(NC(=O)Cn3cnnn3)cc2CC1=O	23.8
COc1cccc(CN2CCN(C(=S)NCc3ccco3)CC2)c1	11.1
C[C@H]1CN([C@@H](C)CO)C(=O)c2cc(NC(=O)CCCCCC(=O)Nc3ccccc3N)ccc2O[C@@H]1CN(C)C(=O)Nc1ccccc1	6.4
CC(C)NC(=O)N(C)C[C@@H]1Oc2c(NS(=O)(=O)c3ccc(Cl)cc3)cccc2C(=O)N([C@H](C)CO)C[C@H]1C	23.6
Nc1nc(SCc2nc(-c3ccccc3)no2)[nH]c(=O)c1-c1ccccc1	-5.5
C[C@H]1CN([C@@H](C)CO)C(=O)Cc2cc(NC(=O)Nc3ccc(C(F)(F)F)cc3)ccc2O[C@H]1CN(C)S(=O)(=O)c1ccc(F)cc1	115.0*
Oc1ccc(CN2CCCC2)c2cccnc12	140.6*
C[C@H]1CN([C@@H](C)CO)C(=O)c2cc(NS(C)(=O)=O)ccc2O[C@@H]1CN(C)S(=O)(=O)c1ccccc1	-0.7
COc1ccc(S(=O)(=O)N(C)C[C@H]2Oc3c(NS(=O)(=O)c4ccc(C)cc4)cccc3C(=O)N([C@H](C)CO)C[C@@H]2C)cc1	15.9
C[C@@H]1CCCCO[C@@H](CN(C)Cc2ccc3c(c2)OCO3)[C@@H](C)CN([C@H](C)CO)C(=O)c2cc(NC(=O)c3ccccc3)ccc2O1	20.9
CCOC(=O)c1cnc2ccc(OCC)cc2c1N(C)Cc1ccccc1	96.5*
Cc1ccc(-n2c(C)nnc2SCC(=O)Nc2cccc(C)c2C)cc1	8.3
C[C@H]1CN([C@@H](C)CO)C(=O)c2cccc(NC(=O)C3CCOCC3)c2O[C@H]1CN(C)C(=O)Nc1ccc(C(F)(F)F)cc1	29.7
COc1c(C)c(OCC=C(C)C)cc(CO)c1CO	16.6
COc1ccc(S(=O)(=O)Nc2ccc3c(c2)C(=O)N([C@@H](C)CO)C[C@H](C)[C@H](CN(C)Cc2ccncc2)O3)cc1	4.3
C[C@@H]1CN([C@@H](C)CO)C(=O)c2cc(NC(=O)Nc3ccc(C(F)(F)F)cc3)ccc2O[C@H]1CN(C)Cc1ccc(C(=O)O)cc1	-18.0
C[C@@H]1CN([C@@H](C)CO)C(=O)Cc2cc(NC(=O)Nc3ccccc3)ccc2O[C@@H]1CN(C)S(=O)(=O)c1ccc(F)cc1	14.1
Cc1noc(C)c1NC(=O)N(C)C[C@H]1Oc2ccc(NC(=O)Cc3ccccc3)cc2CC(=O)N([C@@H](C)CO)C[C@H]1C	-12.9
Cc1cc(O)c2c(c1)C(=O)OC2c1c(O)cccc1O (configuration not stated)	8.2
Cc1cc(N(Cc2cccc(Cl)c2Cl)C(=O)c2ccccc2)no1	32.7
Cc1cccc(N(CC(=O)O)S(C)(=O)=O)c1C	11.3
Cc1ccc(S(=O)(=O)Nc2ccc3c(c2)CC(=O)N([C@H](C)CO)C[C@@H](C)[C@H](CN(C)Cc2ccc(Oc4ccccc4)cc2)O3)cc1	?
C[C@H]1CN([C@@H](C)CO)C(=O)c2cccc(NC(=O)c3ccncc3)c2O[C@@H]1CN(C)S(=O)(=O)c1cn(C)cn1	-9.2
C[C@H](CO)N1C[C@H](C)[C@H](CN(C)Cc2ccc(C(F)(F)F)cc2)Oc2c(NS(=O)(=O)c3cn(C)cn3)cccc2C1=O	-0.4
C[C@H]1CN([C@@H](C)CO)C(=O)Cc2cc(NC(=O)CCCCCC(=O)Nc3ccccc3N)ccc2O[C@H]1CN(C)C(=O)Nc1cccc2ccccc12	21.6
Cc1nn(C)cc1CN(C)C(=O)c1nn2c(c1Br)NC(c1cccs1)CC2C(F)(F)F (configuration not stated)	-3.8
CC(C)NC(=O)Nc1ccc2c(c1)C(=O)N([C@@H](C)CO)C[C@H](C)[C@H](CN(C)C)O2	7.5
C[C@H]1CN([C@@H](C)CO)C(=O)c2cc(NC(=O)Nc3ccccc3)ccc2O[C@H]1CN(C)C(=O)Nc1ccc2c(c1)OCO2	7.6
C[C@@H]1CN([C@@H](C)CO)C(=O)Cc2cc(NC(=O)Nc3ccc(C(F)(F)F)cc3)ccc2O[C@@H]1CN(C)C(=O)Nc1ccc2c(c1)OCO2	124.6*
CCCN(C)C[C@H]1OCCCC[C@@H](C)Oc2ccc(N(C)C)cc2C(=O)N([C@H](C)CO)C[C@@H]1C	1.9
C[C@H]1CN([C@@H](C)CO)C(=O)c2cccc(NC(=O)Nc3ccccc3)c2O[C@@H]1CN(C)C(=O)Nc1ccccc1	4.5
COc1ccc(NC(=O)c2ccc(-c3ccc(-c4noc(C)n4)cc3C)cc2)cc1OCCN(C)C	115.4*
CNc1cc(NS(=O)(=O)c2ccc(N)cc2)nc(NC)n1	5.6
COC(=O)C1=COC(O[C@@H]2O[C@H](CO)[C@@H](O)[C@H](O)[C@H]2O)[C@H]2[C@@H]1[C@H](OC(=O)CCc1ccc(O)cc1)C[C@]2(C)O (some centres not stated)	1.8
COC(=O)CC1=CC(C)(CC(=O)OC)C(C#N)(C#N)C(N)=C1C#N (configuration not stated)	36.7
C[C@@H]1CN([C@H](C)CO)C(=O)c2cccc(NC(=O)C3CCOCC3)c2O[C@@H]1CN(C)C(=O)NC1CCCCC1	-10.7
CC(C)NC(=O)Nc1ccc2c(c1)C(=O)N([C@H](C)CO)C[C@H](C)[C@@H](CN(C)C(=O)Nc1ccc(F)cc1)O2	1.1
C[C@H]1CN([C@@H](C)CO)C(=O)c2cc(NC(=O)NC3CCCCC3)ccc2O[C@@H]1CN(C)Cc1ccc2c(c1)OCO2	25.7
Cc1ncsc1CCSc1nc2ccccc2c(=O)n1-c1ccccc1	34.6
C[C@H]1CN([C@@H](C)CO)C(=O)Cc2cc(NC(=O)CCCCCC(=O)Nc3ccccc3N)ccc2O[C@@H]1CN(C)C(=O)Nc1ccc(C(F)(F)F)cc1	35.4
C[C@H](CO)N1C[C@H](C)[C@@H](CN(C)Cc2ccc(C(=O)Nc3ccccc3N)cc2)Oc2c(NS(=O)(=O)c3ccccc3)cccc2C1=O	53.0
COc1cc(NC(=O)COc2ccc(Cl)cc2C)c(C(=O)O)cc1OC	-16.2
C[C@@H]1CN([C@H](C)CO)C(=O)c2cccc(NS(=O)(=O)c3ccc(Cl)cc3)c2O[C@@H]1CN(C)Cc1ccc(-c2ccccc2)cc1	48.9
C[C@@H]1CN([C@H](C)CO)C(=O)Cc2cc(NC(=O)Nc3ccc(F)cc3)ccc2O[C@H]1CN(C)CC1CC1	0.3
Cc1noc(C)c1NC(=O)Nc1ccc2c(c1)C(=O)N([C@@H](C)CO)C[C@H](C)[C@H](CN(C)Cc1ccc(Oc3ccccc3)cc1)O2	23.9
COC(=O)c1ccc(NC(=O)CCC(=O)c2ccc(F)cc2)cc1	15.0
C[C@@H]1CN([C@@H](C)CO)C(=O)Cc2cc(NC(=O)C3CC3)ccc2O[C@@H]1CN(C)S(=O)(=O)c1ccccc1	4.5

From PubChem BioAssay
